Bead autofluor: flagged as autofluorescent in microsphere protease counterscreen; compound autofluorescence counterscreen, microsphere flow cytometry; hits give high values; fluorescence intensity (no concentration beside the values); actives 3.1% (n = 360,000); AID 624483;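 active means at least 3 SD above the mean of all compounds, about 16000 in these data; inconclusive means too few beads counted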;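 further: 100 nL of 1 mM stock went into each well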
ugtP null kill: compounds lethal to S. aureus RN4220 ugtP deletion mutant; OD600 growth, 16 h; some inactives read as strong as hits; growth inhibition, % (test concentration not listed); actives 0.54% (n = 330,000); AID 1259309;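 active means z-score under -3 and OD600 up to 0.15 on both plates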;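 further: plate controls were untreated wells for no effect and antibiotic for full effect; wells of about 80 µL received 100 nL stock; the first replicate is given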
RN4220 kill: S. aureus RN4220 growth inhibition; OD600, 16 h; inhibition, % (test concentration not listed); actives 0.33% (n = 330,000);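 active means z-score of -3 or lower and OD600 up to 0.18 on both plates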;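 further: plate controls were untreated cells for no effect and reference antibiotic for full effect; stock transfer was 100 nL into about 80 µL; one replicate is shown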
BJeLR viability: kills HRASV12-expressing BJeLR cells | inhibition, % (concentration not given with the values) | actives 0.17% (n = 300,000) | BJeLR (HRASV12) viability, CellTiter-Glo ATP luminescence, 48 h; reference of the scale not given here;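 active means replicate mean above 50%; inconclusive means above 50% but judged a plate artefact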;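 further: 50 nL library stock added to about 25 µL; numbers are from one replicate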
Mtb hypoxia rep: Mtb hypoxia fluorescent reporter inhibition | M. tuberculosis hypoxia-regulated fluorescent reporter, fluorescence | fluorescence inhibition, % (test concentration not listed) | actives 0.1% (n = 300,000);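 active means 35 to 45% if threefold the growth effect, above 45% if 1.5-fold the growth effect; inactive means the rest, general growth blockers included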;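 further: wells of about 50 µL received 100 nL stock; 0% = vehicle wells and 100% = reference inhibitor wells; whole bacteria with a GFP reporter of the hypoxia response; strong numbers were not always called active; many hits fall short of the cut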
PrP UTR inh: inhibition of PrP 5' UTR reporter expression | cell-based PrP 5' UTR mRNA reporter, plate reader | inhibition, % (test concentration not listed) | actives 0.35% (n = 340,000) | AID 488862;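 active means every replicate at 50% or more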;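 further: 0 = median of the neutral control wells; tested in H4 reporter cells; numbers are from one replicate; inactives centre near -14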
Mtb hypoxia rep growth: also measured in Mtb hypoxia rep; calls as there; growth inhibition, %; measured here: M. tuberculosis growth (absorbance);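 0% = vehicle and 100% = reference antibiotic; read after six days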
The depositor's hits bear a star; ? = inconclusive; . = not tested or not shown. Compounds as they come; about 4% have a hit in one of these screens.

Results follow in this order: Bead autofluor	ugtP null kill	RN4220 kill	BJeLR viability	Mtb hypoxia rep	Mtb hypoxia rep growth	PrP UTR inh
> CN(c1ccccn1)c1ncnc2[nH]ncc12
→ 4503	5	5.5	-4	-1	-4	-3
> COc1ccc(C(C)(C)C)cc1NC(=O)COC(=O)c1cnc(C)cn1
→ 9500	3	5.5	-4	8	3	-16
> CC1(C)OC(=O)C(=Cc2ccc(-c3ccc(S(N)(=O)=O)cc3)o2)C(=O)O1
→ 2558	-1	5.5	-3	2	3	-29
> CC(Sc1nnc(Cc2cccs2)n1C)C(=O)Nc1ccc(C(N)=O)cc1 (stereo not drawn)
→ 5239	7	3.3	.	7	11	-3
> COc1ccc(/C=C2\SC(=S)N(NS(=O)(=O)c3ccccc3)C2=O)c(OC)c1
→ 3892	91*	69	-2	5	4	-8
> COCCNC(=O)/C(C#N)=C\c1ccc(CNC(=O)C(=O)Nc2ccc(C)c(C)c2)o1
→ 2420	.	.	15	.	.	-17
> CCn1c(=O)n(CC)c2cc(S(=O)(=O)N3CCC(c4ccccc4)CC3)ccc21
→ 8341	-4	7.0	-7	19	3	-31
> CCOC(=O)N1CCN(Cc2cn3ccccc3n2)CC1
→ 4188	-6	-1.1	-7	3	3	-26
> Cc1cc(O)cc(=O)n1CCc1ccccc1
→ 3923	4	2.8	-4	1	1	-13
> O=C(O)c1cc2ccccc2cn1
→ 2947	-5	3.9	.	10	8	-11
> CC(c1nc2ccccc2c(=O)[nH]1)N1CCCN(S(=O)(=O)c2ccc(F)cc2)CC1 (stereo not drawn)
→ 2975	9	4.4	.	4	-8	-31
> Fc1ccc(OCc2nc(-c3cccs3)no2)cc1
→ 4343	4	11	14	9	12	-111
> Cn1c(=NC(=O)CS(=O)(=O)c2ccccc2)sc2cc([N+](=O)[O-])ccc21
→ ?	7	2.0	6	1	-1	-4
> N=c1c(C(=O)NCc2ccco2)cc2c(=O)n3ccccc3nc2n1CCc1ccccc1
→ .	-3	-10	2	13	7	-17
> CCN(CC)CCNC(=O)C(C)c1nn(C)c(=O)c2ccccc12 (stereo not drawn)
→ 5392	2	1.2	.	.	.	-21
> Cc1oc2cc(O)ccc2c(=O)c1Oc1ccc(F)cc1
→ 3038	6	2.2	-5	-1	-5	-11
> O=C(Cn1cnc2scc(-c3ccc(Br)cc3)c2c1=O)N1CCOCC1
→ 2505	-3	0.2	4	-3	0	-27
> NS(=O)(=O)c1ccc2nc(-c3ccccc3)c(-c3ccccc3)nc2c1
→ 5171	2	0.5	-8	-2	-1	-21
> COC(=O)CSc1nccc(C)n1
→ 2575	7	7.9	0	3	-4	-27
> CN(Cc1ccco1)C(=O)CSc1nn2c(=O)c(C(C)(C)C)nnc2s1
→ 3780	3	3.4	.	-5	5	-10
> CCOc1ccc(NC(=O)CN2C(=O)NC(C)(c3ccc(OC(F)F)cc3)C2=O)cc1 (stereo not drawn)
→ 6293	.	.	-9	.	.	-10
> COc1ccc(/C(O)=C2/C(=O)C(=O)N(CCCN3CCOCC3)C2c2ccc(C)cc2)cc1 (stereo not drawn)
→ 3401	7	1.0	4	-1	7	-39
> CCCCNC(=O)C1CCN(S(=O)(=O)c2cnc[nH]2)CC1
→ 3756	1	0.0	4	.	.	-6
> Cn1cc(CN2CCCCC2CO)c(-c2ccc(Oc3ccccc3)cc2)n1 (stereo not drawn)
→ 4796	14	2.8	.	0	10	-27
> CCOC(=O)c1cccc(NC(=O)Cn2c(CC(=O)NC)nc3ccccc32)c1
→ 11184	6	4.4	10	6	4	-22
> Clc1ccc(-c2cc(CSc3ccccc3)on2)cc1
→ 5769	14	6.6	-9	.	.	-16
> NC(=O)C1CCN(c2ccc(S(=O)(=O)N3CCC(Cc4ccccc4)CC3)cn2)CC1
→ 3864	1	6.1	7	-7	9	-20
> O=C(CNC(=O)Cc1ccccc1)NCC(=O)N1CCCCC1
→ 6083	2	2.8	-11	5	-13	-19
> CC1Cc2ccccc2N1C(=O)CSc1nnc(CSc2ncccn2)n1C (stereo not drawn)
→ 10110	-5	1.9	1	5	8	-20
> CCOC(=O)c1csc(NC(=O)CSc2nnc(C3CC3)n2C)n1
→ 7076	2	2.2	-11	5	1	-7

Going on with the list.
Results follow in this order: Bead autofluor	ugtP null kill	RN4220 kill	BJeLR viability	Mtb hypoxia rep	Mtb hypoxia rep growth	PrP UTR inh
> Cc1ccc(CSc2nc(-c3ccccc3)c(C#N)c(=O)[nH]2)cc1
→ 4937	10	18	5	9	8	-4
> O=C(c1ccc(CNS(=O)(=O)c2ccc(Br)cc2)cc1)N1CCC2(CC1)OCCO2
→ 8305	.	.	1	.	.	-7
> Cc1nn(C(C)C(=O)NNC(=S)Nc2ccc(Cl)cc2)c(C)c1[N+](=O)[O-] (stereo not drawn)
→ 9489	-6	4.6	-4	0	4	-8
> C=CCn1c(SCc2ccc(F)cc2)nnc1-c1sc2nc(C)cc(C)c2c1N
→ 4710	7	5.4	-19	9	5	-8
> CC(C(=O)Nc1ccc(C(N)=O)cc1)N1C(=O)c2ccccc2S1(=O)=O (stereo not drawn)
→ 4599	15	6.3	-3	-1	-4	4
> O=S(=O)(c1cccs1)N1CCN(C/C=C/c2ccccc2)CC1
→ 5277	20	-1.9	12	.	.	-6
> O=C(/C=C/c1cccc(Br)c1)OCC(=O)N1CCN(c2ccccc2)CC1
→ 6570	6	4.3	.	5	3	-32
> CCOC(=O)C1CCCN(C(=O)c2ccc3c(=O)n(CCOC)c(=S)[nH]c3c2)C1 (stereo not drawn)
→ 20489*	8	0.9	-3	0	0	-43
> CCN(CC)S(=O)(=O)c1cc(NC(=O)COC(=O)C2CCC2)ccc1C
→ 5859	-1	3.5	.	4	1	.
> O=S(=O)(c1ccccc1)c1ncc(C(F)(F)F)cc1Cl
→ 3638	1	-1.7	-9	19	18	-15
> O=C(NCCCN1CCOCC1)c1ccc2c(c1)N(Cc1ccccc1)C(=O)c1ccccc1S2
→ 5990	9	-0.5	-11	4	6	-4
> CC(C)CN1CC(C)C(=O)NC1=S (stereo not drawn)
→ 3561	6	4.4	.	17	8	-24
> Cc1cc(=O)oc2cc(OCC(=O)N3CCCC3)ccc12
→ 2677	0	4.6	.	2	5	-13
> COc1cccc(OCCCCN2CC(C)OC(C)C2)c1 (stereo not drawn)
→ 4586	-6	7.4	-4	7	7	-20
> CCN(CC(=O)Nc1c(F)cccc1F)C(=O)CCN1C(=O)C2CCCCC2C1=O (stereo not drawn)
→ 6039	3	1.1	-6	10	4	-13
> Cc1nc(SCC(=O)c2ccc(Cl)cc2)c([N+](=O)[O-])[nH]1
→ 24383*	-2	9.0	8	13	14	-9
> CCC(C=NNC(=O)C1COc2ccccc2O1)CC (stereo not drawn)
→ .	2	3.2	.	17	3	.
> [O-][N+](=Cc1ccccc1)c1ccc(Br)cc1
→ .	8	-3.7	.	21	13	.
> CCN(CC)CC(=O)Nc1ccc2c(c1)Nc1ccccc1CC2
→ 4206	-2	-8.0	0	.	.	-24
> Cc1ccc(S(=O)(=O)Nc2ccc3c(c2)C(=O)N([C@H](C)CO)C[C@H](C)[C@@H](CN(C)C(=O)Nc2ccc4c(c2)OCO4)O3)cc1
→ 3205	1	-14	.	0	6	-28
> CC(=O)c1ccc(N(C)C)c2c(N(C)C)cccc12
→ 9223	-8	-5.4	-10	-6	-1	-16
> COc1ccc(C=NN=Cc2ccc(OC)cc2)cc1
→ .	-2	6.4	.	10	2	.
> C=CCNC(=O)/C(=C\C=C\c1ccccc1)NC(=O)c1ccccc1Cl
→ 2141	4	3.9	0	12	-2	-18
> Cc1ccsc1C(=O)NNC(=O)C1C2C=CC(C2)C1C(=O)O (stereo not drawn)
→ 2458	1	-0.7	.	-4	5	-22
> Cc1nc(SC(C(=O)c2ccccc2)c2ccccc2)n[nH]1 (stereo not drawn)
→ 20864*	16	-1.8	3	3	6	3
> COc1ccc(CCNC(=O)CCCN2C(=O)C(c3ccccc3)Oc3cccnc32)cc1OC (stereo not drawn)
→ 5422	2	0.7	2	2	-2	-15
> CCOC(=O)c1c(NC(=O)C2CC2)sc2c1CC(C)(C)OC2
→ 4536	18	3.7	-2	13	-6	-13
> CC(=O)c1cccc(NC(=O)c2ccc(-c3ccccc3[N+](=O)[O-])o2)c1
→ 10372	.	.	3	.	.	-76
> CCC(Oc1cccc(C)c1)C(=O)Nc1ccccc1C(=O)N1CCOCC1 (stereo not drawn)
→ 5311	0	1.3	2	14	10	-13
> NC(=O)c1ccc(-c2nnc(Nc3ccc(S(N)(=O)=O)cc3)c3ccccc23)cc1
→ 3705	0	3.7	12	15	4	-11

More entries:
Results follow in this order: Bead autofluor	ugtP null kill	RN4220 kill	BJeLR viability	Mtb hypoxia rep	Mtb hypoxia rep growth	PrP UTR inh
> O=C(NN=Cc1c(Cl)nc2ccccn2c1=O)c1cccnc1
→ .	-6	1.5	.	-6	-3	.
> Cc1cc(C)c(-c2c(O)c3cccnc3n(C)c2=O)c(C)c1
→ 3673	-1	-1.7	-4	-4	-8	.
> O=C(Nc1sc2c(c1C(=O)O)CCC2)c1cccc(Cl)c1
→ 3785	36	43	3	-3	2	-19
> Cn1c(SCc2nc3ccccc3n2CCO)nc2ccccc21
→ 4038	-5	-2.8	-10	-2	-2	0
> CC(C)C(NC(=O)c1ccc(C(C)(C)C)cc1)C(=O)NCc1ccccn1 (stereo not drawn)
→ 4245	2	0.0	.	-7	-5	-14
> CCOC(=O)N1CCC(NC(=O)c2cc(S(=O)(=O)N3CCOCC3)ccc2F)CC1
→ 20906*	-4	3.8	3	10	6	-5
> CC(=O)N1N=C(c2ccc(Br)cc2)OC12CCCC2
→ 3615	6	11	2	12	14	5
> O=C(Nc1ccccc1)NC1(C(=O)NCc2cccs2)CCCCC1
→ 8792	1	3.6	2	-1	6	-14
> CCn1cc(C=NNC(=O)c2ccc(C#N)cc2F)c2ccccc21
→ .	0	-0.3	.	3	2	.
> CCOc1cccc2sc(=NC(=O)c3ccco3)n(CC(=O)OC)c12
→ 3235	25	2.1	-2	9	2	-16
> O=C(C1=C(O)C(=O)N(Cc2ccco2)C1c1cccs1)c1cccs1 (stereo not drawn)
→ 2027	-2	12	-3	1	2	-13
> CCOc1cccc2sc(N(CCN(C)C)C(=O)/C=C/c3cccs3)nc12
→ 5118	-5	-9.1	-2	13	16	-22
> Cc1nn(Cc2ccccc2)c(C)c1C(=O)N1CCN(CC(=O)Nc2ccccc2Cl)CC1
→ 4103	-1	-1.1	.	-2	3	-19
> COc1ccc(C(=O)Nc2ccccc2C(=O)Nc2cc(C)ccn2)cc1
→ 3894	2	0.0	7	7	6	-58
> N#Cc1c(-c2ccco2)nc(SCc2ccc(F)cc2)[nH]c1=O
→ 5825	5	20	-1	7	13	-2
